nsP2pro primary: inhibitors of chikungunya virus nsP2 protease; Q8JUX6; FRET peptide cleavage, nsP2pro, fluorescence 1 h; Potency, µM (doses to about 24.9 µM), without a hit: at the highest dose activity change, negative = inhibition, most hits filed as inhibitors; 31,000 tested, 1.1% active; active means well fitted inhibition curve with a large enough effect; inconclusive means small, poorly fitted or top-dose-only effect; inactive means no such curve, though single readings can be large or run the other way; also: nearly all actives have a fitted effect of over 60% in size; a reference inhibitor and vehicle were the controls
Numbers without * were called inactive; i = inactive; ? = inconclusive; & = joins results of further samples; [ ] = remark or other dose. % is scaled to controls: 0 for no effect and ±100 for the full control effect; potency is read from the fitted curve at half-maximal effect. Only part of the results is shown. The share of hits here may be higher or lower than overall.

mol | nsP2pro primary
Cc1ccc(-n2ncc3c(N4CCN(C)CC4)ncnc32)cc1C | -1%
CCOC(=O)N1CCC(NC(=O)c2cnn(-c3ccc(OC)cc3)c2C2CCN(C(=O)OC(C)(C)C)CC2)CC1 | -5%
COc1cc(O)c(C(CC(=O)N2CCCC(C(=O)c3ccccc3)C2)c2ccc3c(c2)OCO3)c(OC)c1 (stereo not drawn) | -4%[39.2 µM]
COc1ccc(NC(=O)Cn2cc(S(=O)(=O)c3ccccc3)c(=O)c3cc4c(cc32)OCO4)cc1 | -6%
CCn1c(=O)cc(OCC(=O)N(C)c2ccc(OC)cc2)c2ccccc21 | -12%
O=S(=O)(c1cc(F)ccc1F)N1CCC(n2cc(CCCO)nn2)CC1 | i
COc1ccccc1NC(=O)c1oc2ccccc2c1NC(=O)c1ccc(S(=O)(=O)N(C)C)cc1 | -17%
CCOc1ccc(CCNC(=O)C(CC)n2nc(C)c3c(C)n(-c4ccccc4)nc3c2=O)cc1 (stereo not drawn) | -11%
CCc1cccc2sc(N3CCN(C(=O)C4CC4)CC3)nc12 | -14%
CCCCn1cnc2cc(C(=O)N3CCCCC3)ccc21 | ?
O=C(Cn1ncccc1=O)NCCc1ccccc1 | -6%
CCNC1(c2cccs2)CCCCC1=O (stereo not drawn) | -16%
Cc1cc(C)n(CC(=O)Nc2cc(F)ccc2F)c(=O)c1C#N | -27%
O=C(Cn1ccn(-c2ccc(F)cc2)c(=O)c1=O)NCCc1ccccc1 | -25%
CC(C)c1ccc(CO)cc1O[C@@H]1O[C@H](CO)[C@@H](O)[C@H](O)[C@H]1O | 77%[activator]

Reprinted at random: 3 entries already listed, in no set order.
mol | nsP2pro primary
O=S(=O)(c1cc(F)ccc1F)N1CCC(n2cc(CCCO)nn2)CC1 | i
CCNC1(c2cccs2)CCCCC1=O (stereo not drawn) | -16%
CCn1c(=O)cc(OCC(=O)N(C)c2ccc(OC)cc2)c2ccccc21 | -12%

Remaining list, next part.
mol | nsP2pro primary
COc1ccc(Cl)cc1N(C)C(=O)C(=O)Nc1ccc2nc3n(c(=O)c2c1)CCCCC3 | 6%
Cc1cccc(N2CCN(C(=O)C3CCCN(S(=O)(=O)c4cccc5nsnc45)C3)CC2)c1C (stereo not drawn) | -10%
CC(=O)[C@H]1CCC2C3CC[C@H]4C[C@H](O)CC[C@]4(C)C3CC[C@@]21C (stereo partly drawn) | -9%
CC1=NOC2(CCN(C(=O)c3ccccc3)CC2)C1 | -20%[39.2 µM]
c1ccc(COc2cccc(-c3nc4ccccc4s3)c2)cc1 | -3%
Cc1ccc(N(CC(=O)Nc2ccc(F)cc2F)S(=O)(=O)c2cccs2)cc1 | -10%
CN(C)c1ccc2ncc(Nc3cc(F)cc(N4CCOCC4)c3)n2n1 | i
COc1cccc(-c2csc3ncnc(Sc4nnnn4C)c23)c1 | ?
CCN1C(=O)Cc2cc(C(=O)NCCC(C)C)ccc21 | -1%
CCOc1ncc(S(=O)(=O)N2CCN(CC)CC2)cc1-c1nc2c(CC)n(CCOC)nc2c(=O)[nH]1 | -6%
CN(C)c1ccc(/C=C2\C(=O)Nc3ccccc32)cc1 | 14%
CN1CCN(CCCNC(=O)C2CCc3sc(C(=O)N4CCCCCC4)cc3C2)CC1 (stereo not drawn) | -4%
CN(C)C[C@@H]1CN(c2ncccn2)C[C@H]1NS(=O)(=O)c1cccnc1 | -3%
Cc1ccc(C)c(S(=O)(=O)n2nc(C)c(S(=O)(=O)N3CCCCCC3)c2C)c1 | ?
CCC/C=C/C(=O)O[C@H]1CC(C)(C)CC2[C@@]13[C@H](O)C[C@]1(C)[C@@]2(CCC2[C@@]4(C)CC[C@H](O[C@@H]5O[C@H](C(=O)O)[C@@H](O)[C@H](O[C@@H]6O[C@H](CO)[C@H](O)[C@H](O)[C@H]6O[C@@H]6O[C@@H](C)[C@H](O)[C@@H](O)[C@H]6O[C@@H]6OC[C@](O)(CO)[C@H]6O)[C@H]5O[C@@H]5O[C@H](CO)[C@H](O)[C@H](O)[C@H]5O)C(C)(C)C4CC[C@]21C)O[C@H]3O (stereo partly drawn) | 14%[5.1 µM]

Carrying on.
mol | nsP2pro primary
CS(=O)(=O)N(Cc1cccnc1)C1CN(C(=O)C2CCCCC2)C1 | -8%
CC1(C)CCCC2(C)C3=C(C(=O)OC3O)C(O)CC12 (stereo not drawn) | ?
COc1ccc(-c2nnc3n2N(C(C)=O)C(c2ccc(Cl)c(Cl)c2)=C(C(C)=O)S3)cc1 | -17%
NS(=O)(=O)c1ccc(CCNc2nc3c(-c4cccc(F)c4)nnn3c3ccc(Cl)cc23)cc1 | -20%
O=C(NCCc1ccc(Cl)cc1)c1cccn1-c1nnc(N2CCCCC2)s1 | -15%
CCC(C)C1NC(=O)C(Cc2ccccc2)NC(=O)C(CCCCCC(=O)C(O)CO)NC(=O)C2CCCCN2C1=O (stereo not drawn) | -18%[10 µM]
COc1ccc(CC(=O)Nc2nc3c(s2)CCCC3)cc1 | ?
O=C(c1ccc2c(c1)N(Cc1ccccc1F)C(=O)c1ccccc1S2=O)N1CCCCC1 (stereo not drawn) | -9%
CCN1C(=O)c2ccccc2C1Nc1ccc(OCCN2CCCCC2)cc1 (stereo not drawn) | 3%
CCC1(C2CCN(C(=O)CCCc3ccccc3)CC2)NC(=O)N(CCc2scnc2C)C1=O (stereo not drawn) | i
O=C(Cc1csc2nc(-c3ccccc3)cn12)NCc1ccc(F)cc1 | -12%
O=C(Cc1ccc(F)cc1)NCc1nnc2ccc(-c3ccc(Cl)cc3)nn12 | i
CC(C)=CC(=O)N1C[C@@H](NC(=O)NC2CCCCC2)C[C@H]1C(=O)N[C@H](Cc1c[nH]c2ccccc12)C(N)=O | -4%
c1cc(-c2cc(C3CCNCC3)[nH]n2)ccn1 | -13%[10 µM]
COc1cccc(-c2nnc3n2N=C(c2ccc(OC)cc2OC)CS3)c1 | i

Next section.
mol | nsP2pro primary
O=C(COc1ccc2ccccc2c1)NC1CC(=O)N(c2ccccc2)C1 (stereo not drawn) | -11%
NC(=O)C1CCN(C(=O)c2ccc(NC(=O)c3nsc4ccccc34)cc2)CC1 | -2%
C/C(=C/CO)CC[C@@H]1[C@@]2(C)CCC[C@](C)(C(=O)O)C2CC[C@@]1(C)O (stereo partly drawn) | 13%
Cc1ccc(CNC(=O)CCCn2c(=O)c3ccccc3n(Cc3ccccc3Cl)c2=O)cc1 | -16%
Cc1ncc2n1C(=O)N(C1CCN(Cc3ccc(F)cc3)CC1)C2 | i
COc1cc2c(cc1OC)[C@@H]1[C@H](O)[C@@H](OC)C=C3CCN(C2)[C@H]31 | ?
S=P(N1CC1)(N1CC1)N1CC1 | 2%[0.199 µM]
COc1ccc(C)cc1NC(=O)c1cc2c(=O)n(Cc3cccnc3)ccc2nc1C | -9%
CCOc1ccc(-n2c(SCC(=O)N3CCC(C)CC3)nc3c([nH]c4ccccc43)c2=O)cc1 | -13%
COc1ccc(NC(=O)Cn2c(=O)n(CCC(C)C)c(=O)c3cccnc32)cc1Cl | -5%
COc1ccc(-n2c(C)c(C(C)=O)c3cc(O)ccc32)cc1 | i
Cc1nc2c(O)cccc2c(=O)[nH]1 | ?
CCOc1cc(CNC(=O)NC2COc3ccc(OC)cc3C2)cc(OCC)c1OCC (stereo not drawn) | -23%
O=S(=O)(/N=C/c1c(O)ccc2ccccc12)c1cccs1 | ?
CCOC(=O)c1cnc2c(Cl)c(Cl)ccc2c1Nc1ccc(N(C)C)cc1 | -17%

Reformatted: results already given
c1cc(-c2cc(C3CCNCC3)[nH]n2)ccn1
  nsP2pro primary: -13%[10 µM]

COc1ccc(NC(=O)Cn2c(=O)n(CCC(C)C)c(=O)c3cccnc32)cc1Cl
  nsP2pro primary: -5%

Cc1cc(C)n(CC(=O)Nc2cc(F)ccc2F)c(=O)c1C#N
  nsP2pro primary: -27%

O=C(Cc1csc2nc(-c3ccccc3)cn12)NCc1ccc(F)cc1
  nsP2pro primary: -12%

Further structures follow.
mol | nsP2pro primary
NS(=O)(=O)c1ccc(CCNc2nccn(-c3cccc(C(F)(F)F)c3)c2=O)cc1 | -10%
CCc1ccc(S(=O)(=O)Nc2ccc3c(c2)n(C)c(=O)c(=O)n3C)cc1 | -16%
C/C=C(/C)C(=O)OC1CC(C)(C)CC2C3=CCC4C5(C)CCC(O[C@@H]6O[C@H](C(=O)O)[C@@H](O)[C@H](O)[C@H]6O[C@@H]6O[C@H](CO)[C@H](O)[C@H](O[C@@H]7OC[C@H](O)[C@H](O)[C@H]7O[C@@H]7O[C@H](CO)[C@@H](O)[C@H](O)[C@H]7O)[C@H]6O)C(C)(C)C5CCC4(C)C3(C)C(O)C(O)C12CO (stereo partly drawn) | 4%[5.1 µM]
O=c1oc2ccccc2c(N2CCN(c3ccc(F)cc3)CC2)c1CN1CCCC1 | ?
CC(C)NCCCn1c(Sc2cc3c(cc2I)OCO3)nc2c(N)ncnc21 | -2%
CCOc1ccc(NC(=O)Cn2c(=O)oc3cc(S(=O)(=O)N4CCC(C)CC4)ccc32)cc1 | -1%
COCC(=O)N[C@H]1C[C@@H](CO)N(Cc2ccsc2)C1 | -8%
NC(=O)C1CCN(c2ncc(-c3ccc(Cl)cc3)s2)CC1 | i
Cc1c(N)nc(C(CC(N)=O)NCC(N)C(N)=O)nc1C(=O)NC(C(=O)NC(C)C(O)C(C)C(=O)NC(C(=O)NCCc1nc(-c2nc(C(=O)NCCCN[C@@H](C)c3ccccc3)cs2)cs1)C(C)O)C(O[C@@H]1O[C@@H](CO)[C@@H](O)[C@H](O)[C@@H]1O[C@H]1O[C@H](CO)[C@@H](O)[C@H](OC(N)=O)[C@@H]1O)c1cnc[nH]1 (stereo partly drawn) | 109%[activator]
Fc1ccc(-n2ncc3c(NC4CCCCCC4)ncnc32)cc1 | -36%
COc1ccc2[nH]cc(CCNC(C)=O)c2c1 | 10%&-3%
O=C(O)c1cc(O)c2c(c1)[C@H]([C@H]1c3cc(C(=O)O)cc(O)c3C(=O)c3c(O[C@@H]4O[C@H](CO)[C@@H](O)[C@H](O)[C@H]4O)cccc31)c1cccc(O[C@@H]3O[C@H](CO)[C@@H](O)[C@H](O)[C@H]3O)c1C2=O | ?
COC(=O)C1=CO[C@@H](O[C@@H]2O[C@H](CO)[C@@H](O)[C@H](O)[C@H]2O)[C@H]2[C@@H]1[C@H](O)C[C@]2(C)O | 1%[10 µM]
CCCc1nc2sc3c(N4CCC(C)CC4)ncnc3c2c2c1CCCC2 | -22%
CC(C)(C)c1cc(CN2CCN(CC(O)c3ccc(Cl)cc3)CC2)cc(C(C)(C)C)c1O (stereo not drawn) | -21%

Next results.
mol | nsP2pro primary
CC(=O)N1CCc2nn(CC(=O)Nc3ccccc3C(C)C)c(=O)cc2C1 | ?
Cc1ccc2nc(-c3ccc(Cl)c(NC(=O)c4ccc5c(c4)OCCO5)c3)oc2c1 | -7%
COc1ccc(-n2c(SCCCN3C(=O)c4cccc5cccc(c45)C3=O)nnc2-c2ccncc2)cc1 | 10%
O=C(O)CCCCCCCCC(=O)O | -9%[39.2 µM]
CC1(O)CC(O)C2(O)C=COC(O[C@@H]3O[C@H](CO)[C@@H](O)[C@H](O)[C@H]3O)C12 (stereo partly drawn) | 3%
COc1ccc2c(O[C@@H]3C[C@H]4C(=O)N[C@]5(C(=O)O)C[C@H]5/C=C\CCCCC[C@H](NC(=O)OC5CCCC5)C(=O)N4C3)cc(-c3csc(NC(C)C)n3)nc2c1 | -12%
NCc1ccc(Oc2ccc(F)c(Cl)c2)cc1 | -9%[39.2 µM]
CCCN(CCC)C(=O)Cn1c(=O)n(-c2ccc(OC)cc2)c(=O)c2ccc(C(=O)NCc3ccc(C)cc3)cc21 | -20%
Cc1cc(C2CC(C(=O)NCc3ccco3)CN(C(=O)NC(C)C)C2)ccc1F (stereo not drawn) | -12%
COC(=O)C[C@H]1C(C)(C)[C@H](OC(=O)c2ccccc2)C2CC3=C4CC(=O)O[C@@H](c5ccoc5)[C@]4(C)CCC3[C@@]1(C)C2=O (stereo partly drawn) | -18%[10 µM]
CN1CC(=O)N2[C@H](c3ccc4c(c3)OCO4)c3[nH]c4ccccc4c3C[C@@H]2C1=O | ?
COC(=O)C1=COC(OC2OC(CO)C(O)C(O)C2O)C2C1C=CC2(O)CO (stereo not drawn) | 19%[10 µM]
COc1ccccc1CNC(=O)CN1C(=O)CSc2ccc(S(=O)(=O)N3CCCCC3)cc21 | -26%
COc1ccn(C)c(=O)c1C#N | 3%
CC(C)N1CCc2c(sc(NC(=O)Cc3ccccc3)c2-c2nc3ccccc3s2)C1 | -2%

(list continues)
mol | nsP2pro primary
O=c1c(=O)n(Cc2c(F)cccc2Cl)ccn1Cc1ccccc1 | -28%
CCn1cc2nc(SCc3cccc(F)c3)n(CCc3ccccc3)c(=O)c2n1 | -9%
Cc1ccc(-c2nn3c(C)nnc3s2)cc1NC(=O)c1ccc(-c2cccc(Cl)c2)o1 | 1%&-1%
Cc1ccc(-n2ncc(C(=O)NCCN3CCOCC3)c2C2CCN(C(=O)OC(C)(C)C)CC2)c(C)c1 | -9%
O=C(/C=C/c1ccc(O)c(O)c1)OCc1ccccc1O[C@@H]1O[C@H](CO)[C@@H](O)[C@H](O)[C@H]1O | 6%[10 µM]
Cc1ccccc1S(=O)Cc1ccc(C(=O)NC2CCCCCC2)o1 (stereo not drawn) | -29%

Bioassay records as filed in PubChem.
